Compound activity (PubChem)
FGF22 binding: shifts melting point of recombinant human FGF22. Q9HCT0. recombinant FGF22 thermal shift, SYPRO orange fluorescence; percent of sucrose octasulfate shift, DMSO zero. 1.5% of 340,000 active. AID 651658. calls only at 9.99 µM;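 active = melting point raised past a set limit in the mean and every replicate; inconclusive = no clear call; three in four hits are not shown here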
Target sequence (Q9HCT0 whole entry, looked up): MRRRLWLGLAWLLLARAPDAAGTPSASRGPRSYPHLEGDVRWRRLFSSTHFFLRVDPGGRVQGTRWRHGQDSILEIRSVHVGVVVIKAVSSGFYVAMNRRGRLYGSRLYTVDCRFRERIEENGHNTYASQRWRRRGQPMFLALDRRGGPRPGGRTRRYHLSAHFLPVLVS
AF4-AF9 inh: blocks AF4 peptide binding to human AF9 | AlphaScreen, biotin-AF4 peptide binding to FLAG-AF9 | 0.47% of 350,000 active | inhibition, % at 10 µM;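 active = every replicate reaching a set inhibition limit, whatever the replicate mean, cut at about 25% in these data; inconclusive = mean inhibition reaches that limit but some replicates miss it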;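 also: 0% = plate neutral control median and 100% = total signal loss; the record names both 10 and 1 µM as test concentration; the first replicate is given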
Target sequence (P42568 whole entry, looked up): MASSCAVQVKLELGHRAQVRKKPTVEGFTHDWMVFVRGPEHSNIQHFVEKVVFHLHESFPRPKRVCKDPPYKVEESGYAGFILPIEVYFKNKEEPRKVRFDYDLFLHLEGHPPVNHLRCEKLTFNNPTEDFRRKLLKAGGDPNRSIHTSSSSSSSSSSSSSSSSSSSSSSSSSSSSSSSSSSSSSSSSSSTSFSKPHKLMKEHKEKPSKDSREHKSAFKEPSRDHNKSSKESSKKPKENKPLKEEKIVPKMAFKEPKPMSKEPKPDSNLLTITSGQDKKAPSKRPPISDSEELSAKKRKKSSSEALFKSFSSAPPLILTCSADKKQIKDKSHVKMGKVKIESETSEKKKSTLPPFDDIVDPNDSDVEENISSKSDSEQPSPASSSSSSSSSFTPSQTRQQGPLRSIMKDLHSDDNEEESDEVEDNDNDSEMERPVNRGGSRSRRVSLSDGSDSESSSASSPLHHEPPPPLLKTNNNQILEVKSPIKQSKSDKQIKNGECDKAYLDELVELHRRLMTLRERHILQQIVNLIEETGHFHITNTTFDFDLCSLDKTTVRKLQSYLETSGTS
The depositor's hits bear a star; i = inactive; ? = inconclusive.

FGF22 binding	AF4-AF9 inh	canonical_smiles
i	-1.9	C[C@@H]1CCCCO[C@H](CN(C)C(=O)Nc2ccc(C(F)(F)F)cc2)[C@H](C)CN([C@H](C)CO)C(=O)c2cc(NS(=O)(=O)c3ccc(F)cc3)ccc2O1
i	-24	C[C@H](NC(=O)C[C@H]1C=C[C@H](NC(=O)c2cccnc2)[C@H](CO)O1)c1ccccc1
i	-0.6	COCCNC(=O)C[C@H]1C[C@@H]2c3cc(NS(=O)(=O)c4ccccc4)ccc3O[C@@H]2[C@@H](CO)O1
i	2.3	O=C(c1cnccn1)N1CC(=O)N2[C@H](CO)[C@@H](c3ccc(C#CCc4ccccc4)cc3)[C@H]2C1
i	-0.8	Cc1noc(C)c1S(=O)(=O)Nc1ccc2c(c1)C(=O)N([C@@H](C)CO)C[C@@H](C)[C@H](CN(C)Cc1ccncc1)OCCCC[C@@H](C)O2
i	-0.9	CO[C@H]1CN(C)C(=O)c2ccc(NC(C)=O)cc2OC[C@H](C)N(Cc2ccncc2)C[C@H]1C
i	-0.1	COCCNC(=O)C[C@H]1C[C@@H]2c3cc(NC(=O)NC4CCCC4)ccc3O[C@@H]2[C@@H](CO)O1
i	9.9	O=C(Cc1ccncc1)Nc1ccc2c(c1)[C@@H]1C[C@H](CC(=O)N3CCc4ccccc4C3)O[C@@H](CO)[C@@H]1O2
i	0.6	CS(=O)(=O)N1CC2(C1)[C@@H](c1ccccc1)[C@@H](CO)N2CC1CC1
i	1.4	COc1ccc(S(=O)(=O)N(C)C[C@H]2Oc3ccc(NC(=O)Nc4ccccc4)cc3CC(=O)N([C@@H](C)CO)C[C@@H]2C)cc1
i	-1.7	CN1C(=O)c2cc(NC(=O)c3cc(F)cc(F)c3)ccc2OC[C@H]2O[C@H](CC(=O)O)CC[C@H]21
i	-1.8	Cc1noc(C)c1NC(=O)Nc1cccc2c1O[C@@H](CN(C)Cc1ccc3c(c1)OCO3)[C@@H](C)CN([C@@H](C)CO)C2=O
i	5.6	CCCC#Cc1ccc([C@H]2[C@H]3CN(S(=O)(=O)CC)CCCCN3[C@H]2CO)cc1
i	-1.6	COc1ccc(CN(C)C[C@@H]2Oc3ccc(NS(=O)(=O)c4cn(C)cn4)cc3CC(=O)N([C@H](C)CO)C[C@@H]2C)cc1
i	0.5	C[C@H](CO)N1C[C@H](C)[C@H](CN(C)C(=O)Nc2ccc(F)cc2)Oc2ccc(NC(=O)NC3CCCCC3)cc2C1=O
i	-2.3	CCCNC(=O)N[C@H]1CC[C@H](CCn2cc(C3CCCC3)nn2)O[C@H]1CO

Of the compounds above, 2 have an aryl methoxy group.
FGF22 binding	AF4-AF9 inh	canonical_smiles
i	1.4	COc1ccc(S(=O)(=O)N(C)C[C@H]2Oc3ccc(NC(=O)Nc4ccccc4)cc3CC(=O)N([C@@H](C)CO)C[C@@H]2C)cc1
i	-1.6	COc1ccc(CN(C)C[C@@H]2Oc3ccc(NS(=O)(=O)c4cn(C)cn4)cc3CC(=O)N([C@H](C)CO)C[C@@H]2C)cc1

(more compounds)
FGF22 binding	AF4-AF9 inh	canonical_smiles
i	0.6	COc1ccccc1-c1ccc2c(c1)O[C@H](CN(C)CC1CCOCC1)[C@H](C)CN([C@@H](C)CO)S2(=O)=O
i	2.5	CCCCOCC1CN(CCCC)S(=O)(=O)c2c(Oc3ccc(SC)c(C)c3)cccc2O1 (stereo not given)
i	0.7	C[C@@H]1CN([C@@H](C)CO)S(=O)(=O)c2ccc(-c3ccncc3)cc2O[C@H]1CN(C)C(=O)c1ccc2c(c1)OCO2
i	2.9	C[C@H]1CN([C@@H](C)CO)C(=O)c2cc(NC(=O)Nc3cccc4ccccc34)ccc2O[C@H]1CN(C)Cc1ccc(C(F)(F)F)cc1
i	1.8	CCCC(=O)Nc1ccc2c(c1)C(=O)N(C)C[C@H](OC)[C@H](C)CN(CC1CCCC1)[C@@H](C)CO2
i	4.1	CCCC#Cc1ccc2c(c1)O[C@H](CN(C)S(=O)(=O)c1cccc(F)c1)[C@@H](C)CN([C@@H](C)CO)S2(=O)=O
i	3.0	C/C=C/c1ccc2c(c1)O[C@@H](CN(C)C(=O)Nc1cccc(F)c1)[C@@H](C)CN([C@H](C)CO)S2(=O)=O
i	-2.7	CCS(=O)(=O)N[C@@H]1CC[C@@H](CC(=O)NCc2ccc(Cl)cc2)O[C@@H]1CO

For convenience, part of the list above:
FGF22 binding	AF4-AF9 inh	canonical_smiles
i	3.0	C/C=C/c1ccc2c(c1)O[C@@H](CN(C)C(=O)Nc1cccc(F)c1)[C@@H](C)CN([C@H](C)CO)S2(=O)=O
i	-2.7	CCS(=O)(=O)N[C@@H]1CC[C@@H](CC(=O)NCc2ccc(Cl)cc2)O[C@@H]1CO

Continued.
FGF22 binding	AF4-AF9 inh	canonical_smiles
i	-5.9	C[C@H]1CN([C@@H](C)CO)C(=O)c2ccccc2-c2ccccc2CO[C@H]1CN(C)C(=O)NC1CCCCC1
i	0.9	COCCNC(=O)C[C@@H]1C=C[C@@H](NC(=O)NC2CCCCC2)[C@H](CO)O1
i	-4.8	C[C@H](CO)N1C[C@H](C)[C@@H](CN(C)C(=O)NC2CCCCC2)Oc2cc(-c3cccnc3)ccc2S1(=O)=O
i	0.7	C[C@@H]1CN([C@@H](C)CO)C(=O)c2c(c3ccccc3n2C)-c2ccccc2CO[C@@H]1CN(C)Cc1cccc(C(F)(F)F)c1
i	-0.1	O=C(N[C@@H]1CC[C@@H](CCNC(=O)C2CCC2)O[C@@H]1CO)c1ccccn1
i	1.3	O=C(C1CCOCC1)N1[C@@H](CO)[C@@H](c2ccccc2)C12CN(Cc1cccc(Cl)c1)C2
i	-3.0	Cc1cccc(S(=O)(=O)N2CCCCN3[C@@H](CO)[C@H](c4ccc(-c5ccncc5)cc4)[C@@H]3C2)c1
i	-18	CCCNC(=O)[C@H]1[C@H](CO)[C@H]2Cn3c(cccc3=O)[C@H]2N1C(=O)C1CCCC1
i	1.0	C[C@@H]1CN([C@H](C)CO)C(=O)c2cccc(NC(=O)c3ccc(-c4nccs4)cc3)c2O[C@@H]1CN(C)S(=O)(=O)c1ccc(F)cc1
i	-3.2	O=C(N[C@@H]1CC[C@H](CCNC(=O)C2CCC2)O[C@@H]1CO)c1ccncc1
i	0.0	O=C(C[C@H]1C[C@H]2c3cc(NC(=O)Nc4ccccc4)ccc3O[C@H]2[C@@H](CO)O1)NCc1cccc(F)c1
i	-2.8	Cc1ccccc1-c1cnc2c(c1)C(=O)N([C@@H](C)CO)C[C@@H](C)[C@@H](CN(C)Cc1cccnc1)O2
i	2.1	Cc1ccccc1S(=O)(=O)N1C[C@H]2[C@@H](c3ccccc31)[C@@H](CO)N2C(=O)CC1CC1
i	2.1	COc1ccc2c3c(n(C)c2c1)[C@@H](CO)N(C)CC31CN(C(=O)NC(C)C)C1
i	-0.7	COc1ccc(NC(=O)N[C@H]2CC[C@H](CCNC(=O)c3ccccc3F)O[C@@H]2CO)cc1
i	-3.7	CC(=O)N(C)C[C@H]1Oc2ncc(C#Cc3ccccc3)cc2C(=O)N([C@@H](C)CO)C[C@H]1C

Overlap with the part before: 2 entries, followed by the next part.
FGF22 binding	AF4-AF9 inh	canonical_smiles
i	-0.7	COc1ccc(NC(=O)N[C@H]2CC[C@H](CCNC(=O)c3ccccc3F)O[C@@H]2CO)cc1
i	-3.7	CC(=O)N(C)C[C@H]1Oc2ncc(C#Cc3ccccc3)cc2C(=O)N([C@@H](C)CO)C[C@H]1C
i	-7.5	Cc1ccc(S(=O)(=O)N(C)C[C@H]2OCCCC[C@H](C)Oc3ccc(NC(=O)NC4CCCCC4)cc3C(=O)N([C@H](C)CO)C[C@@H]2C)cc1
i	-0.5	O=C/C=C/c1ccc(/C=C/c2ccccc2)cc1
i	11	C/C=C/c1ccc2c(c1)O[C@H](CN(C)Cc1ccccc1F)[C@H](C)CN([C@H](C)CO)S2(=O)=O
i	-0.1	CC(C)NC(=O)Nc1cccc2c1O[C@@H](CN(C)S(=O)(=O)c1ccc(F)cc1)[C@@H](C)CN([C@@H](C)CO)C2=O
i	0.1	COc1ccc(NC(=O)Nc2cccc3c2O[C@@H](CN(C)S(=O)(=O)c2ccc(Cl)cc2)[C@@H](C)CN([C@H](C)CO)C3=O)cc1
i	-1.2	O=C(C[C@H]1CC[C@H]2[C@@H](COC[C@@H](O)CN2CCC(F)(F)F)O1)NCC1CCCCC1
i	4.3	C[C@H](CO)N1C[C@H](C)[C@H](CN(C)Cc2ccc(C(=O)Nc3ccccc3N)cc2)Oc2c(NC(=O)c3ccncc3)cccc2C1=O
i	2.4	CCCC#Cc1ccc2c(c1)O[C@H](CN(C)C(=O)c1cccnc1)[C@H](C)CN([C@H](C)CO)S2(=O)=O
i	0.6	COCCNC(=O)C[C@@H]1C[C@H]2c3cc(NC(=O)NC4CCCC4)ccc3O[C@H]2[C@@H](CO)O1
i	9.4	C[C@@H]1CCCCO[C@H](CN(C)Cc2ccccc2)[C@H](C)CN([C@H](C)CO)C(=O)c2cc(NC(=O)Nc3ccc(F)cc3)ccc2O1
i	-5.1	C[C@H](CO)N1C[C@H](C)[C@H](CN(C)C(=O)Nc2ccc3c(c2)OCO3)OCCCC[C@H](C)Oc2ccc(NS(=O)(=O)c3cn(C)cn3)cc2C1=O
i	-3.7	CC(C)NC(=O)N(C)C[C@@H]1OCc2ccccc2-c2ccccc2C(=O)N([C@@H](C)CO)C[C@@H]1C
i	0.4	C[C@H]1CCCCO[C@@H](CN(C)Cc2ccncc2)[C@@H](C)CN([C@@H](C)CO)C(=O)c2cc(NC(=O)Nc3ccc(C(F)(F)F)cc3)ccc2O1
i	6.8	C[C@@H]1CN([C@@H](C)CO)C(=O)c2cc(C#Cc3ccc(F)cc3)cnc2O[C@@H]1CN(C)CC1CCOCC1
i	1.8	CO[C@H]1CN(C)C(=O)c2ccc(NC(=O)Nc3cc(F)ccc3F)cc2OC[C@H](C)N(C)C[C@H]1C
i	-1.0	CNC[C@H]1OCCCC[C@@H](C)Oc2ccc(NC(=O)c3ccncc3)cc2C(=O)N([C@H](C)CO)C[C@@H]1C
i	-2.7	C[C@H]1CN([C@@H](C)CO)C(=O)c2ccccc2-c2ccccc2CO[C@@H]1CN(C)C(=O)Oc1ccccc1
i	2.6	C[C@@H]1CN([C@@H](C)CO)C(=O)Cc2cc(NS(=O)(=O)c3cn(C)cn3)ccc2O[C@H]1CN(C)C(=O)Nc1cccc2ccccc12
i	3.5	C[C@H]1CN([C@@H](C)CO)S(=O)(=O)c2ccc(C#CC3CCCC3)cc2O[C@H]1CN(C)C(=O)Nc1cc(F)ccc1F
i	3.8	CNC[C@@H]1Oc2c(NC(=O)Nc3ccc(C(F)(F)F)cc3)cccc2C(=O)N([C@H](C)CO)C[C@@H]1C
i	2.9	COc1cccc(-c2ccc3c(c2)O[C@H](CN(C)Cc2ccncc2)[C@H](C)CN([C@H](C)CO)S3(=O)=O)c1
i	0.5	C[C@H]1CN([C@@H](C)CO)S(=O)(=O)c2ccc(C#CC(C)(C)O)cc2O[C@@H]1CN(C)Cc1ccc(-c2ccccc2)cc1
i	0.2	O=C(NCC[C@H]1CC[C@@H](NS(=O)(=O)c2cccc(F)c2)[C@@H](CO)O1)C1CCCCC1
i	-0.7	COCCNC(=O)C[C@H]1CC[C@H](NS(=O)(=O)c2ccc(C)cc2)[C@@H](CO)O1

Profiles as entered above. Values in the order: FGF22 binding	AF4-AF9 inh
`O=C(NCC[C@H]1CC[C@@H](NS(=O)(=O)c2cccc(F)c2)[C@@H](CO)O1)C1CCCCC1` across the screens: i	0.2
`COCCNC(=O)C[C@H]1CC[C@H](NS(=O)(=O)c2ccc(C)cc2)[C@@H](CO)O1` across the screens: i	-0.7

More compounds:
FGF22 binding	AF4-AF9 inh	canonical_smiles
i	-0.4	Cc1noc(C)c1S(=O)(=O)N(C)C[C@H]1OCCCC[C@@H](C)Oc2ccc(NC(=O)c3ccccc3)cc2C(=O)N([C@H](C)CO)C[C@@H]1C
i	-1.0	COc1ccc(-c2cnc3c(c2)C(=O)N([C@H](C)CO)C[C@@H](C)[C@@H](CN(C)C(=O)Cc2ccncc2)O3)cc1
i	-0.4	C[C@H]1CN([C@@H](C)CO)C(=O)c2cc(C#Cc3ccncc3)cnc2O[C@H]1CN(C)C(=O)CN(C)C
i	0.7	COCC#Cc1ccc2c(c1)O[C@@H](CN(C)S(=O)(=O)c1ccc(C)cc1)[C@H](C)CN([C@H](C)CO)S2(=O)=O
i	16	COc1ccccc1-c1ccc2c(c1)[C@H]1[C@H](CCN1S(=O)(=O)c1cccc(C)c1)[C@@H](CO)N2
i	2.9	COc1cccc(NC(=O)C[C@H]2CC[C@@H]3[C@@H](COc4ccc(NC(=O)C5CCOCC5)cc4C(=O)N3C)O2)c1
i	-1.4	COCC(=O)N1[C@H](CO)[C@H]2c3ccccc3N(C(=O)C3CC3)C[C@H]21
i	9.2	C[C@@H]1CN([C@H](C)CO)S(=O)(=O)c2ccc(C#Cc3ccccc3)cc2O[C@@H]1CN(C)C
i	-3.4	CCS(=O)(=O)Nc1ccc2c(c1)C(=O)N(C)C[C@@H](OC)[C@@H](C)CN(Cc1ccccn1)[C@H](C)CO2
i	-1.4	CC(C)NC(=O)N(C)C[C@H]1Oc2cc(C#CC(C)(C)O)ccc2S(=O)(=O)N([C@@H](C)CO)C[C@@H]1C
i	4.1	CO[C@H]1CN(C)C(=O)c2ccc(NC(=O)Nc3ccc(C(F)(F)F)cc3)cc2OC[C@@H](C)NC[C@H]1C
i	?	COc1ccc2c3c(n(C)c2c1)[C@H](CO)N(C(C)=O)CC31CCN(Cc2ccc(Cl)cc2)CC1
i	2.2	C[C@@H]1CN([C@@H](C)CO)S(=O)(=O)c2ccc(-c3ccc(F)cc3)cc2O[C@H]1CN(C)C(=O)C1CCCCC1
i	1.3	O=C(C[C@@H]1C[C@H]2c3cc(NC(=O)c4ccc5c(c4)OCO5)ccc3O[C@H]2[C@H](CO)O1)NC1CCCCC1
i	-2.0	COC(=O)[C@@H]1[C@@H](CO)[C@@H]2Cn3c(ccc(C4=CCCC4)c3=O)[C@@H]2N1C(=O)Cc1cccnc1

A portion of the library; count on the stated rates, not on these rows.
